Screening results deposited in PubChem BioAssay by several laboratories.
HIV Env fusion = blocks HIV Env-driven cell-cell fusion; inhibition, % at 12.3 µM; HeLa-JRFL Env/CEM21 cell fusion, luciferase; hit rate 1.1% among 360,000;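 active = mean replicate inhibition score of at least 50 and every replicate individually at or above 50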;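 also: 0% = plate neutral controls and 100% = maraviroc near 300 nM; one replicate is shown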
PABP polyA inh = blocks human PABP binding to poly(A) RNA | AID 2014 | fluorescence polarization | hit rate 1% among 290,000 | inhibition, % at 35 µM | P11940;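 active = 50% or more with normal probe brightness, or confirmed in later tests; about a fifth of its hits are not listed in these tables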;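 also: calls also rest on retests at 20 µM and on dose response follow-up; controls were probe without protein and protein plus probe with vehicle; some compounds called inactive have numbers as strong as hits; many hits fall short of the cut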
Target sequence (P11940 whole entry, looked up): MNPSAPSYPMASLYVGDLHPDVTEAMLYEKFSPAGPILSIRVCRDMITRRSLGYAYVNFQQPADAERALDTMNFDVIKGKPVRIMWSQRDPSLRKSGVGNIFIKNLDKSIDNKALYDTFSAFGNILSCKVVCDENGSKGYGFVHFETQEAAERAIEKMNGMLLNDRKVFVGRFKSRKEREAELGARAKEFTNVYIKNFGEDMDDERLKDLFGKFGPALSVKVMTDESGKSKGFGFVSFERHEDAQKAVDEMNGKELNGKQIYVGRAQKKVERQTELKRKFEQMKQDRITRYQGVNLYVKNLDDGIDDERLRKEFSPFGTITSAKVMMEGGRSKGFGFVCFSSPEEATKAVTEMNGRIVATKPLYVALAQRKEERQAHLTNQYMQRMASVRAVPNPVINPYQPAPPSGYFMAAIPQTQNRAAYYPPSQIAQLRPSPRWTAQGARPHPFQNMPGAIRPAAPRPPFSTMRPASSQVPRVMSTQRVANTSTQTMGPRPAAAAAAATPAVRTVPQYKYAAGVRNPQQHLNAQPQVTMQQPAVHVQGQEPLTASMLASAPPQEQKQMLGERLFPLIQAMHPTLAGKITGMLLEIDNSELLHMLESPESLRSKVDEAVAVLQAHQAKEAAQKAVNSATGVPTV
CSC inhib = cancer stem cell inhibition; cancer stem cell-like cells viability, luminescence; inhibition, % at 7.5 µM; hit rate 1.1% among 300,000;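 active = mean at 75% or more and at least half the replicates too; tested in HMLE shEcad cells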;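 also: 0% = median of negative and 100% = median of positive control wells; the first replicate is given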
eIF4H inh = inhibitors of RNA binding by human eIF4H; Q15056; eIF4H fluorescence polarization binding assay; inhibition, % at 35 µM; hit rate 0.94% among 290,000;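 active = 50% or more with normal probe brightness, or confirmed in later tests; about a fifth of its hits are not listed in these tables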;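 also: calls also rest on retests at 20 µM and on dose response follow-up; 0% = protein and probe with vehicle and 100% = probe without protein; strong numbers were not always called active; many hits fall short of the cut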
MT1-MMP act inh = blocks activation of human MT1-MMP. P50281. HT1080 RFP-PRO-GFP cells, GFP/RFP ratio fluorescence, overnight; percent of plate control window, DMSO zero. GFP/RFP ratio change, % at 20 µM. hit rate 0.061% among 360,000. AID 651647;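 active = GFP/RFP ratio change of at least 30% with cell ATP level not reduced by more than half and red fluorescence within 50% of control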; also: strong numbers were not always called active
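system = RFP-PRO-GFP reporter HT1080 cells | dosing = 20 µM single dose, 1% DMSO | timing = overnight cell settling, then overnight compound exposure, 37 °C, 5% CO2 | read-out basis = GFP/RFP fluorescence ratio | controls = DMSO and RFP-L50D-GFP cell wells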
Yeast UUG start = yeast start codon fidelity modulation. S. cerevisiae UUG-firefly luciferase reporter, luminescence/redox ratio. activity score, % at 18.7 µM. hit rate 0.13% among 350,000. AID 602363;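 active = replicate mean at a twofold rise or more, about +100% in these data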;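 also: firefly luciferase made from a UUG start codon reports start codon fidelity; reporter light over untreated wells divided by growth signal over untreated wells; some hits fall short of that in this replicate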
Rce1 inhib = yeast Ras-converting enzyme inhibition | calls only | Q03530 | hit rate 0.27% among 290,000 | yeast membranes, quenched prenylated peptide cleavage fluorescence;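 active = fall in fluorescence gain of 50% or more versus controls, with final raw signal at or below 3038400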;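 also: plate controls were neutral control wells for no effect and wells lacking membranes for full effect; tested at 10 µM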
Target sequence (Q03530 whole entry, looked up): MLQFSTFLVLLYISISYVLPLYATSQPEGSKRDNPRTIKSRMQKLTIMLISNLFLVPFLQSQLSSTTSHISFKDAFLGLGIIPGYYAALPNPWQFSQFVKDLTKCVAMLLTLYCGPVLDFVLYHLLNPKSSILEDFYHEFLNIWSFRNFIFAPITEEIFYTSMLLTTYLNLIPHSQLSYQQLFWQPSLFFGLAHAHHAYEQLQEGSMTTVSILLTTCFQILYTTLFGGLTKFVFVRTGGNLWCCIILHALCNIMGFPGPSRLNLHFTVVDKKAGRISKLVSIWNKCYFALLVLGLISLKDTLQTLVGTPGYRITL
eIF4H inh retest = further read-out of eIF4H inh, marked with its call; inhibition, %; compound at 20 µM; confirmation average;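 mean of two retest wells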
PABP polyA inh retest = further read-out of PABP polyA inh, marked with its call; inhibition, %; compound at 20 µM; confirmation repeats;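 mean of two retest wells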
MT1-MMP act inh RFP = recorded beside MT1-MMP act inh, whose call it bears; RFP signal change, %; measured here: RFP expression control read;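 0 = vehicle wells; hits needed this value within 50% of zero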
The depositor's hits bear a star; i = inactive; · = no result given.

SMILES	HIV Env fusion	PABP polyA inh	CSC inhib	eIF4H inh	MT1-MMP act inh	MT1-MMP act inh RFP	Yeast UUG start	Rce1 inhib	others
Cc1sc(NC(=O)c2ccccc2)c(C#N)c1-c1ccccc1	·	-1.4	31.5	1.6	-4.2	-12.7	·	i
COc1ccccc1N1CC(C(=O)Nc2nnc(SCC(=O)NCC3CCCO3)s2)CC1=O (stereo not given)	12.4	-5.4	-3.3	-4.0	0.6	4.9	-6.6	i
CC12CCC(c3n[nH]c(=S)nc31)C2(C)C (stereo not given)	·	-5.9	-6.8	3.8	-0.9	-0.5	-16.7	i
COc1ccc(OCC(=O)NCC(c2cccs2)N2CCOCC2)cc1 (stereo not given)	13.8	·	-8.4	·	-2.7	-3.4	-15.5	i
O=C(Cc1ccccc1)NCC(=O)Nc1cccc(Cl)c1	1.2	4.4	-4.4	-18.2	2.2	4.8	-3.1	i
O=C(O)CCCn1nc(C(F)(F)F)c2c1CCCCC2	-82.0	1.7	-10.9	-9.9	0.2	0.4	-19.7	i
O=C1C2C3C=CC(C3)C2C(=O)N1c1ccc(S(=O)(=O)Nc2nccs2)cc1 (stereo not given)	13.9	2.5	·	-1.9	2.4	-1.2	1.0	i
CS(=O)(=O)N1CCN(c2cnn(-c3ccccc3)c(=O)c2Cl)CC1	-3.5	-1.5	-3.9	-9.5	-1.3	6.4	-10.2	i
CC(=O)NC(Cc1ccccc1F)C(=O)NC1CCN(C(=O)c2cnccn2)CC1 (stereo not given)	10.3	-12.3	-6.2	5.3	5.3	6.6	-4.2	i
Cn1ncc(Br)c1C(=O)NC1CCCC1	-5.8	2.8	·	7.8	-5.5	1.8	-4.6	i
O=C(NCCCN1CCCC1=O)Nc1ccc([N+](=O)[O-])cc1	-13.2	5.9	7.6	-1.9	-1.7	-2.0	-2.9	i
O=C(Nc1ccc2c(c1)OCCO2)C(c1cc2ccccc2o1)N1CCN(c2ccc(C(F)(F)F)cn2)CC1 (stereo not given)	-16.9	·	·	·	-0.6	-4.5	-27.0	·
CCCCN1CCc2[nH]c(=S)[nH]c(=O)c2C1	·	1.0	-1.7	-5.4	4.0	2.7	-22.5	i
Cc1cc(=O)oc2cc(OCC(=O)Nc3nnc(CC(C)C)s3)ccc12	-47.3	-8.6	-2.0	-3.5	5.9	12.8	-23.0	i
C[C@@H]1CN([C@H](C)CO)C(=O)c2cccc(NC(=O)c3ccncc3)c2O[C@@H]1CN(C)Cc1ccc(C(=O)O)cc1	113.9*	·	-0.7	·	-0.8	2.0	-11.6	·
CCOC(=O)C(C(=O)Nc1ccccn1)C1CCCCC1 (stereo not given)	-21.7	37.1	-5.5	-7.0	-4.5	2.6	-2.2	·
Cc1ccc(-c2nnn(CC(=O)N(CCO)C(C(=O)NC3CCCCC3)c3ccncc3)n2)o1 (stereo not given)	11.9	1.1	-10.2	50.7	0.6	0.4	·	i	eIF4H inh retest=8.2;PABP polyA inh retest=48.7
CCCn1nc(C(=O)Nc2cccc(C(=O)OC)c2)c2ccccc2c1=O	-139.5	0.5	-10.2	-1.6	4.3	-3.8	1.9	i
CCC(CC)C(=O)Nc1cc(C)cc(C)c1	17.0	3.8	-10.3	-8.5	-5.7	-2.2	-17.7	i
CCOC(=O)c1nnn(-c2nonc2N)c1CN(C)C1CCCCC1	·	-4.8	-1.7	-7.1	1.7	1.3	-33.0	i
O=C(CN1C(=O)c2ccccc2S1(=O)=O)Nc1ccc([N+](=O)[O-])cc1	·	·	0.9	·	1.9	4.1	-3.2	·
Cc1ccccc1S(=O)(=O)N1CCN(C)CC1	-20.1	-6.0	-11.3	-6.9	-1.8	1.7	-6.3	i
CC1=CC(C)C2C(=O)N(c3ccccc3)C(=O)C2C1 (stereo not given)	·	4.8	-17.5	-3.9	-2.7	4.4	-15.0	i
C(=N\N1CCN(Cc2ccccc2)CC1)/c1cccs1	11.2	-17.2	-9.4	1.0	1.9	2.9	-7.4	i
Cc1cc(C)n2nc(C(=O)OCC(=O)N(CC(C)C)CC(C)C)nc2n1	3.6	-12.4	-1.6	-13.9	0.3	1.0	-15.8	i

(list continues)
SMILES	HIV Env fusion	PABP polyA inh	CSC inhib	eIF4H inh	MT1-MMP act inh	MT1-MMP act inh RFP	Yeast UUG start	Rce1 inhib	others
CCc1sc(-c2c(C#N)c(N)nc3c2CCCCCC3)cc1[N+](=O)[O-]	-5.0	3.9	14.3	0.6	-1.9	-2.3	-22.8	i
O=C(O)CSc1nc(-c2ccccc2)c(-c2ccccc2)[nH]1	-8.3	5.7	4.0	-11.1	1.8	6.4	·	i
COc1cc(NC(=O)c2ccc([N+](=O)[O-])o2)ccc1NC(=O)c1ccco1	-51.7	·	45.4	·	9.9	-13.1	10.1	i
Cc1ccccc1-n1c(=O)n(Cc2ccco2)c(=O)c2[nH]cnc21	1.1	-5.4	-3.3	-8.3	5.2	5.7	5.4	i
C#CC[N+](C)(C)CC#Cc1ccccc1	0.5	9.2	10.0	-4.0	0.1	3.9	·	i
CC(=O)c1ccc2c(c1)OCCOCCOc1ccccc1OCCOCCO2	-4.7	8.8	1.3	-10.1	-4.8	-1.8	6.4	i
CCN(Cc1ccccc1)S(=O)(=O)c1ccc(C(=O)Nc2nnc(-c3ccccc3OC)o2)cc1	21.5	-7.6	5.7	21.3	-5.2	-6.3	-7.2	i
O=C(CCN1CCCCO1)N1CCCC(N2CCN(c3ccc(F)cc3)CC2)C1 (stereo not given)	-5.3	1.6	13.5	0.9	0.3	0.7	-24.5	i
COc1ccc(Cn2nnnc2CN2CCC(O)(c3ccc(F)cc3)CC2)cc1	-1.2	8.1	-12.1	4.4	0.4	-0.7	·	i
COCc1cc(C)n(CC(=O)NC(C)c2ccccc2)c(=O)c1C#N (stereo not given)	11.3	-3.6	-12.1	-3.4	-0.1	-1.2	-13.2	i
O=C(NCC(=O)N(Cc1ccccc1)C(C(=O)NC1CCCC1)c1ccco1)c1ccco1 (stereo not given)	-255.8	1.7	-6.2	10.0	-8.5	-18.2	-5.5	i
COc1ccc(CCNC(=O)c2ccc(NS(=O)(=O)c3c(C)noc3C)cc2)cc1OC	·	-2.4	1.8	-2.5	2.8	-0.4	-8.9	i
COc1ccc(/C=C/C(=O)NC(=S)Nc2cc3oc4ccccc4c3cc2OC)cc1	-1.3	0.2	-8.6	1.2	0.9	4.4	·	·
CC(=O)ON=C1C=CC(=C(C#N)c2ccccc2)C=C1	-200.2	·	·	·	4.5	-6.3	-29.1	·
O/N=C(/CN(O)/C=C1/C=CC=N1)c1cccs1	-53.6	0.2	11.5	-6.8	·	·	2.0	i
COc1ccccc1NC(=O)CN1CCN(CC(=O)Nc2ccc(OCc3ccccc3)cc2)CC1	·	-11.6	15.0	-7.5	3.1	-19.5	1.1	i
Cn1c(N)c(C(=O)CSc2ccc3c(c2)OCCO3)c(=O)n(C)c1=O	·	0.9	-4.1	-9.7	1.1	-7.0	-3.6	i
O=C(NCc1ccccc1Cl)C1CCN(S(=O)(=O)N2CCCC2)CC1	-1.3	-0.4	-8.1	-5.0	-1.6	-0.9	-4.6	i
Cc1ccccc1OCC(=O)Nc1ccc(S(=O)(=O)N2CCCC2)cc1	·	·	-7.2	·	2.3	-3.5	13.9	i
Cc1cccc(NC(=O)Cn2nc(-c3cccs3)ccc2=O)c1C	1.2	-5.7	-5.3	-2.3	-0.7	0.1	-6.7	i
Cc1ccc(N=C(NO)c2cnccc2C(F)(F)F)c(C)c1	17.4	-1.6	·	-9.3	4.2	-1.1	-14.7	i
CC(C)Cc1ccc(-c2cc(=O)[nH][nH]2)cc1	-13.9	7.5	19.3	0.7	-0.5	-2.3	·	i
CCN(CC)S(=O)(=O)c1ccc(NS(=O)(=O)c2ccc(C)c(C)c2)cc1	-87.5	-8.3	11.1	-2.8	2.6	0.9	-2.3	i
Cc1cc(S(=O)(=O)NCCN2CCOCC2)c(C)s1	-78.8	19.2	-13.5	-5.2	-1.2	-0.9	-16.6	i
COc1ccc(N(CC(=O)NC2CCCCC2)C(=O)CNC(=O)c2ccco2)cc1	11.0	-5.3	-11.9	-10.4	3.1	1.3	15.2	i

Random excerpt: 3 records from the list
SMILES	HIV Env fusion	PABP polyA inh	CSC inhib	eIF4H inh	MT1-MMP act inh	MT1-MMP act inh RFP	Yeast UUG start	Rce1 inhib	others
Cc1cc(S(=O)(=O)NCCN2CCOCC2)c(C)s1	-78.8	19.2	-13.5	-5.2	-1.2	-0.9	-16.6	i
CC(=O)c1ccc2c(c1)OCCOCCOc1ccccc1OCCOCCO2	-4.7	8.8	1.3	-10.1	-4.8	-1.8	6.4	i
O=C(O)CSc1nc(-c2ccccc2)c(-c2ccccc2)[nH]1	-8.3	5.7	4.0	-11.1	1.8	6.4	·	i

Further records:
SMILES	HIV Env fusion	PABP polyA inh	CSC inhib	eIF4H inh	MT1-MMP act inh	MT1-MMP act inh RFP	Yeast UUG start	Rce1 inhib	others
Nc1ccc(-c2cnc[nH]2)cc1[N+](=O)[O-]	-11.4	3.3	-1.9	-5.6	3.2	1.5	·	i
Cc1cc(-c2ccc(N3C(=O)CCC3=O)c(C)c2)ccc1N1C(=O)CCC1=O	·	-1.0	-1.7	0.2	-0.2	-1.2	·	i
CCc1ccc(N(CC(=O)NC(C)C)C(=O)CCC(=O)Nc2nccs2)cc1	14.2	15.8	5.1	-1.3	0.7	-1.7	6.4	i
CCOC(=O)C1CCN(C(=O)Cn2cc3c(n2)CCC(C)C3)CC1 (stereo not given)	-4.7	7.4	-3.4	-8.7	3.3	1.7	-7.5	i
CCSc1nnc(NC(=O)CCC2CCCCC2)s1	3.1	·	-8.4	·	2.3	-1.1	·	i
N#CCCN1CCN(S(=O)(=O)c2ccc3c(c2)OCCCO3)CC1	·	0.1	-12.9	3.3	4.3	4.1	-20.4	i
O=C(COC(=O)C1CC1)Nc1ccc(N=Nc2ccccc2)cc1	-35.5	3.6	-4.6	-1.4	-3.6	-3.9	·	i
CCNC(=O)NC(=O)C(C)Sc1nc2ccccc2c(=O)n1-c1cccnc1 (stereo not given)	-0.4	6.7	6.7	3.8	5.0	8.7	0.3	i
CC(C)c1cccc(C(C)C)c1NC(=O)CN1C(=O)NC2(CCCC2)C1=O	-5.0	-3.8	-0.9	-2.8	0.1	2.1	-6.9	i
Cc1ccc2c(NC(=O)c3ccco3)cccc2n1	-1.6	7.3	-17.5	-1.5	-1.2	3.8	-2.5	i
O=C(c1cc(-c2cccc(Cl)c2)on1)N1CCN(c2ccccc2)CC1	5.0	9.7	38.9	1.6	-4.4	-3.0	-7.2	i
COc1cc(-c2cc(-c3ccc(N)cc3)[nH]c(=O)c2C#N)cc(OC)c1OC	14.5	-13.5	-11.2	19.7	-72.0	2.9	-28.3	i
Cc1oc(-c2ccccc2Cl)nc1CSCC(=O)O	-7.4	7.0	·	-3.1	-0.9	1.7	-7.9	i
O=C(COC(=O)CNC(=O)c1ccc(Cl)cc1)NC1CCCCCC1	13.1	·	·	·	2.1	7.6	-24.6	·
O=C(Cn1c2[n+](c3ccc(C(F)(F)F)cc31)CCCCC2)c1ccc2c(c1)OCCO2	5.9	-3.9	-1.6	0.9	-4.7	-3.8	·	i
CCOC(=O)C1(C(N)=O)OC1(c1ccc(Cl)cc1)c1ccccc1Cl (stereo not given)	-7.0	·	·	·	0.2	-1.8	5.7	·
CCOc1ccc(/C(C)=N/NC(=O)Cn2nc([N+](=O)[O-])cc2C)cc1	9.2	-11.4	-6.2	-0.8	-1.1	-4.2	·	i
CCN1C[C@@H]2[C@@H]3C(=O)N(Cc4ccccc4)C(=O)[C@@H]3[C@](C)(C1=O)N2C(=O)c1ccc(C)cc1	6.3	·	·	·	-3.3	2.4	-2.2	·
O=C(COc1ccc(Cl)cc1Cl)N1CCCN(C(=O)COc2ccc(Cl)cc2Cl)CC1	83.5*	-4.9	37.5	-8.4	0.9	-4.3	-2.8	·
Cc1[nH]c2ccccc2c1C(=O)CN1CCC(C)CC1	·	-16.4	12.8	-3.9	-3.6	0.7	3.1	i
